FGF22 binding: binders of recombinant human FGF22 by thermal shift. SYPRO orange fluorescence; percent of sucrose octasulfate shift, DMSO zero. 1.5% of 340,000 active. Q9HCT0. calls only at 9.99 µM;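 active means melting point raised past a set limit in the mean and every replicate; three in four hits are not shown here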
Target sequence (Q9HCT0 whole entry, looked up): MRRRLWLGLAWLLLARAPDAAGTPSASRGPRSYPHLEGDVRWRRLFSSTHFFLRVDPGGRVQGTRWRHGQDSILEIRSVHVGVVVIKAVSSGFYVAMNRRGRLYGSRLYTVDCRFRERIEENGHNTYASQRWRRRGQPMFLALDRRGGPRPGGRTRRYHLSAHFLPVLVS
Ecoli rRNA inh: inhibitors of bacterial rRNA selective over humanized ribosomes; GFP signal change (wild-type ribosome), % (test concentration not listed); E. coli WT GFP vs humanized-ribosome RFP mutants, fluorescence, 24 h; hits give low values; DMSO median 0, no signal -100; 1.6% of 350,000 active;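 active means significant combined selectivity score with lowered wild-type GFP, culture density cut under 30%, mutant RFP and density less affected; inactive means any of these conditions unmet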; further: one replicate is shown; some compounds called inactive have numbers as strong as hits
Ecoli rRNA inh OD600: also measured in Ecoli rRNA inh; calls as there; OD600 change, %; measured here: OD600 growth;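 optical density of the mix in the first replicate; 0 = DMSO median and -100 = no signal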
Ecoli rRNA inh RFP: second read-out of Ecoli rRNA inh, no call of its own (marks repeat the call); RFP signal change, %; measured here: RFP humanized mutant strains;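 first replicate; 0 = DMSO median and -100 = no signal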
Active calls of the source: *; i = inactive; & = joins results of further samples. Not all compounds are listed (hit frequency here may not be typical).

SMILES	FGF22 binding	Ecoli rRNA inh	Ecoli rRNA inh OD600	Ecoli rRNA inh RFP
COc1ccccc1NC(=O)N(C)C[C@@H]1Oc2ncc(C#CCC(C)C)cc2C(=O)N([C@@H](C)CO)C[C@@H]1C	i	-2	-5	-2.3
CCC(=O)N[C@@H]1CC[C@H](CCNC(=O)Nc2ccc(C(F)(F)F)cc2)O[C@@H]1CO	i	-57	-77	-17
C[C@@H]1CN([C@@H](C)CO)C(=O)c2c(c3ccccc3n2C)-c2ccccc2CO[C@H]1CN(C)Cc1ccccc1C(F)(F)F	i	3	2	-2.0
O=C(c1ccc(F)cc1)N1CC[C@@H]2[C@@H](CO)Nc3ccc(-c4ccccc4F)cc3[C@@H]21	i	-45	-71	-8.5
COc1ccc(CN2C[C@@H](O)COC[C@H]3O[C@H](CC(=O)NCCN4CCCC4)CC[C@@H]32)cc1	i	5	18	-1.2
C[C@@H]1CN([C@H](C)CO)C(=O)c2cccc(NS(=O)(=O)c3ccc(F)cc3)c2O[C@H]1CN(C)C(=O)Nc1ccccc1	i	-2	-1	0.0
CC(C)(O)C#Cc1ccc([C@H]2[C@@H](CO)N3CCCCN(C(=O)c4ccc(F)cc4)C[C@@H]23)cc1	i	2	2	-1.9
O=C(C[C@@H]1CC[C@@H](NS(=O)(=O)c2ccc(F)cc2)[C@H](CO)O1)NCc1ccc(Cl)c(Cl)c1	i	-8	-27	10
COC(=O)[C@@H]1[C@@H](CO)[C@@H]2Cn3c(ccc(-c4ccc(F)cc4)c3=O)[C@@H]2N1C	i	0	5	-1.9
COCC(=O)Nc1ccc2c(c1)OC[C@@H](C)NC[C@@H](C)[C@@H](OC)CN(C)C2=O	i	4	3	-0.8
C[C@@H](NC(=O)C[C@H]1CC[C@@H](NC(=O)C2CC2)[C@@H](CO)O1)c1ccccc1	i	4	2	-0.4
C/C=C/c1cnc2c(c1)C(=O)N([C@H](C)CO)C[C@H](C)[C@@H](CN(C)C(=O)NC1CCCC1)O2	i	3	10	-0.3
COc1ccc(NC(=O)N(C)C[C@@H]2Oc3ccc(NC(=O)CCC(F)(F)F)cc3CC(=O)N([C@H](C)CO)C[C@@H]2C)cc1	i	4	7	-1.4
CCS(=O)(=O)N1CC2(CN(C(=O)c3ccc(F)cc3)[C@@H](CO)c3[nH]c4cc(OC)ccc4c32)C1	i	-6	-6	-1.0
C[C@@H]1CN([C@H](C)CO)C(=O)Cc2cc(NS(=O)(=O)c3cccs3)ccc2O[C@H]1CN(C)C(=O)NC1CCCCC1	i	-2	-1	0.3
O=C(c1cnccn1)N1C[C@H]2[C@@H](c3ccccc31)[C@@H](CO)N2Cc1ccccc1Cl	i	3	9	-0.4
O=C(Nc1cccc(Cl)c1)N[C@@H]1CC[C@@H](CCNC(=O)C2CCOCC2)O[C@@H]1CO	i	-1	-2	-1.2
CCCC#Cc1cnc2c(c1)C(=O)N([C@H](C)CO)C[C@H](C)[C@H](CN(C)C(=O)NCCC)O2	i	4	-4	0.2
CN(C)C(=O)C[C@@H]1C[C@H]2c3cc(NC(=O)C4CCOCC4)ccc3O[C@H]2[C@@H](CO)O1	i	-2	6	-3.3
COc1ccc(NC(=O)Nc2ccc3c(c2)CC(=O)N([C@H](C)CO)C[C@@H](C)[C@H](CN(C)S(=O)(=O)c2ccc(F)cc2)O3)cc1	i	3	-3	0.8
COCC#Cc1cnc2c(c1)C(=O)N([C@@H](C)CO)C[C@@H](C)[C@@H](CN(C)S(=O)(=O)c1cccc(OC)c1)O2	i	-1	1	0.5
Cc1noc(C)c1NC(=O)Nc1ccc2c(c1)C(=O)N([C@@H](C)CO)C[C@H](C)[C@@H](CN(C)Cc1ccc(Oc3ccccc3)cc1)O2	i	0	3	-1.3
C[C@H]1CN([C@@H](C)CO)C(=O)c2cccc(N(C)C)c2O[C@H]1CN(C)C(=O)Nc1ccccc1	i	2	6	0.0
C[C@H]1CN([C@@H](C)CO)C(=O)c2cccc(NS(=O)(=O)c3cn(C)cn3)c2O[C@@H]1CN(C)C(=O)Nc1ccc2c(c1)OCO2	i	5	11	-2.0
C/C=C/c1ccc2c(c1)O[C@@H](CN(C)C(=O)c1cccnc1)[C@@H](C)CN([C@H](C)CO)S2(=O)=O	i	-1	-2	1.9
CCCNC(=O)C[C@H]1CC[C@H]2[C@@H](COc3ccc(NC(=O)Cc4cccs4)cc3C(=O)N2C)O1	i	-2	-5	0.6
CCOC(=O)c1cnc2c3c(noc13)CCC2	i	3	2	-0.8
O=C(NCC[C@H]1CC[C@H](NS(=O)(=O)c2cccc(F)c2)[C@H](CO)O1)C1CCCCC1	i	-3	1	0.7
C[C@@H]1CN([C@@H](C)CO)C(=O)c2cc(NC(=O)C3CCCCC3)ccc2O[C@@H](C)CCCCO[C@H]1CN(C)C(=O)CCC(F)(F)F	i	-3	-8	-0.5
CCCN1C[C@@H](C)[C@@H](OC)CN(C)C(=O)c2cc(NC(=O)CC(F)(F)F)ccc2OC[C@H]1C	i	1	2	0.5
C[C@H](CO)N1C[C@H](C)[C@H](CN(C)C(=O)Nc2ccccc2C(F)(F)F)OCc2ccccc2-c2ccccc2C1=O	i	-1	-11	-0.8
CCCC#Cc1cnc2c(c1)C(=O)N([C@@H](C)CO)C[C@@H](C)[C@@H](CN(C)S(C)(=O)=O)O2	i	2	7	-0.2
CN1[C@@H]2Cn3c(ccc(C4=CCCC4)c3=O)[C@H]1[C@@H](C(=O)N1CCOCC1)[C@@H]2CO	i	3	6	0.2
O=C(Nc1ccccc1)N[C@H]1CC[C@@H](CCNS(=O)(=O)c2ccccc2F)O[C@H]1CO	i	-4	6	-1.4
COc1ccc(S(=O)(=O)N(C)C[C@H]2Oc3ccc(NC(=O)CCN4CCOCC4)cc3C(=O)N([C@@H](C)CO)C[C@H]2C)cc1	i	0	7	-2.2
Cc1ccc(S(=O)(=O)N(C)C[C@@H]2Oc3ccc(NC(=O)NC(C)C)cc3CC(=O)N([C@H](C)CO)C[C@H]2C)cc1	i	0	4	-2.2
CO[C@H]1CN(C)C(=O)c2cc(NC(=O)C3CC3)ccc2OC[C@@H](C)N(CC2CCOCC2)C[C@H]1C	i	3	1	-0.5
CN(C)C(=O)C[C@@H]1C=C[C@H](NC(=O)NC2CCCCC2)[C@H](CO)O1	i	-1	4	-2.6
Cc1ccccc1-c1ccc(C2[C@@H]3CN(C(=O)NC4CCCCC4)C[C@H]2N3)cc1 (stereo partly drawn)	i	-60&-61	-74&-78	-12&-14
C[C@H]1CN([C@@H](C)CO)S(=O)(=O)c2ccc(C#CCC3CCCC3)cc2O[C@@H]1CN(C)C(=O)CN(C)C	i	2	-5	2.9
CO[C@@H]1CN(C)C(=O)c2cc(NC(=O)CC(F)(F)F)ccc2OC[C@@H](C)N(C(C)=O)C[C@@H]1C	i	0	5	1.0
O=C(NC1Cc2ccccc2C1)[C@H]1[C@H](CO)[C@H]2Cn3c(cccc3=O)[C@H]2N1C(=O)C1CC1	i	2	9	-4.1
CO[C@@H]1CN(C)C(=O)c2ccc(NC(=O)c3cccc(F)c3)cc2OC[C@H](C)N(C)C[C@H]1C	i	-1	-3	-1.8
N#C[C@H]1[C@@H](c2ccc(C#Cc3ccc(F)cc3)cc2)[C@H](CO)N1C(=O)C1CCCC1	i	2	2	0.5
CC=Cc1ccc2n(c1=O)C[C@H]1[C@H](CO)[C@@H](C(=O)NCCC)N(CC3CC3)[C@@H]21 (mixture of isomers)	i	-1	-2	-1.3
COCC(=O)N1[C@H](CO)[C@@H](c2ccc(C#Cc3ccccc3F)cc2)[C@@H]1C#N	i	-3	-7	12
O=C(C[C@@H]1CC[C@@H]2[C@H](COC[C@@H](O)CN2Cc2ccc(Oc3ccccc3)cc2)O1)N1CCCCC1	i	-37	-61	-6.0
Cc1ccc(S(=O)(=O)Nc2ccc3c(c2)C(=O)N([C@@H](C)CO)C[C@@H](C)[C@@H](CN(C)S(=O)(=O)c2c(C)noc2C)OCCCC[C@@H](C)O3)cc1	i	-2	-2	-0.4
O=C1CN(S(=O)(=O)c2cccc(F)c2)C[C@H]2[C@@H](c3ccc(C4=CCCC4)cc3)[C@H](CO)N12	i	0	-1	0.4
C[C@@H](NC(=O)C[C@H]1C=C[C@H](NC(=O)CN2CCOCC2)[C@H](CO)O1)c1ccccc1	i	7	9	-0.2
CN(C)C(=O)c1ccc(-c2ccc([C@H]3[C@@H](CO)N4CCCCN(CC5CC5)C[C@H]34)cc2)cc1	i	5	18	-1.6
N#C[C@@H]1[C@H](c2ccccc2/C=C/c2ccccc2)[C@H](CO)N1S(=O)(=O)c1ccc(F)cc1	i	1	-4	-7.2
COC(=O)c1cc2c(c3c4cc(C)ccc4n(S(=O)(=O)c4ccc(OC)cc4)c13)C(=O)N(Cc1ccccc1)C2	i	6	7	11
C[C@H]1CN([C@@H](C)CO)S(=O)(=O)c2ccc(C3=CCCCC3)cc2O[C@@H]1CN(C)C(=O)Cc1ccccc1	i	-10	-38	12
O=C(C[C@@H]1C[C@H]2c3cc(NC(=O)Nc4ccccc4F)ccc3O[C@H]2[C@@H](CO)O1)NCC1CC1	i	1	1	-2.6
C[C@@H]1CCCCO[C@H](CN(C)C(=O)CCC(F)(F)F)[C@H](C)CN([C@H](C)CO)C(=O)c2cc(NS(=O)(=O)c3cccs3)ccc2O1	i	2	-11	6.6
C[C@H]1CN([C@@H](C)CO)C(=O)c2cc(-c3cncnc3)cnc2O[C@@H]1CN(C)Cc1ccc(F)cc1	i	8	16	-4.5
O=C(C[C@@H]1CC[C@@H]2[C@H](COC[C@H](O)CN2Cc2nccs2)O1)NCc1ccc(-c2ccccc2)cc1	i	-8	-16	3.7
COc1ccccc1CNC(=O)C[C@@H]1C[C@@H]2c3cc(NC(=O)CC4CC4)ccc3O[C@@H]2[C@@H](CO)O1	i	-3	-4	-0.8
O=C(CCN1CCCCC1)N[C@H]1CC[C@H](CCNS(=O)(=O)c2ccccc2)O[C@H]1CO	i	1	2	-1.7

New compounds follow:
SMILES	FGF22 binding	Ecoli rRNA inh	Ecoli rRNA inh OD600	Ecoli rRNA inh RFP
O=S(=O)(c1ccccc1)N1CC[C@@H]2[C@@H](CO)Nc3ccc(Br)cc3[C@@H]21	i	-17	-30	-8.2
COc1ccc(CN2[C@H](CO)[C@@H]3c4ccccc4N(C(=O)NC(C)C)C[C@@H]32)cc1	i	3	5	0.9
C[C@@H]1CN([C@H](C)CO)C(=O)c2cccc(NS(=O)(=O)c3ccc(Cl)cc3)c2O[C@@H]1CN(C)S(=O)(=O)c1ccc(Cl)cc1	i	-2	-2	1.3
Cc1cccc(S(=O)(=O)N2CC[C@@H]3[C@H](CO)Nc4ccc(C#Cc5ccc(F)cc5)cc4[C@@H]32)c1	i	-7	4	1.0
C[C@@H]1CN([C@H](C)CO)C(=O)c2cc(NS(C)(=O)=O)ccc2O[C@@H]1CN(C)Cc1ccccc1	i	0	-9	-4.3
C[C@@H]1CN([C@H](C)CO)C(=O)c2cc(-c3ccncc3)cnc2O[C@H]1CN(C)C(=O)CN1CCOCC1	i	7	43	-3.1
CC(C)CC#Cc1cnc2c(c1)C(=O)N([C@@H](C)CO)C[C@@H](C)[C@@H](CN(C)Cc1ccccn1)O2	i	4	-1	-1.1
C/C=C/c1ccc2c(c1)O[C@H](CN(C)C(=O)c1ccncc1)[C@H](C)CN([C@H](C)CO)S2(=O)=O	i	-6	-2	1.8
CC(C)NC(=O)Nc1ccc2c(c1)CC(=O)N([C@H](C)CO)C[C@@H](C)[C@H](CN(C)C(=O)Nc1ccc(C(F)(F)F)cc1)O2	i	1	-3	-3.2
CN1CCN(C(=O)C[C@H]2CC[C@H]3[C@H](COc4ccc(NC(=O)c5ccc(F)c(F)c5)cc4C(=O)N3C)O2)CC1	i	1	-3	-1.0
C[C@@H]1CCCCO[C@H](CN(C)Cc2ccc(C(F)(F)F)cc2)[C@@H](C)CN([C@@H](C)CO)C(=O)c2cc(NC(=O)Nc3ccc(C(F)(F)F)cc3)ccc2O1	i	0	2	0.6

A different layout for seven compounds above:
Under each structure: FGF22 binding, Ecoli rRNA inh, Ecoli rRNA inh OD600, Ecoli rRNA inh RFP
CC(C)NC(=O)Nc1ccc2c(c1)CC(=O)N([C@H](C)CO)C[C@@H](C)[C@H](CN(C)C(=O)Nc1ccc(C(F)(F)F)cc1)O2
  i, 1, -3, -3.2
CO[C@@H]1CN(C)C(=O)c2cc(NC(=O)CC(F)(F)F)ccc2OC[C@@H](C)N(C(C)=O)C[C@@H]1C
  i, 0, 5, 1.0
C/C=C/c1cnc2c(c1)C(=O)N([C@H](C)CO)C[C@H](C)[C@@H](CN(C)C(=O)NC1CCCC1)O2
  i, 3, 10, -0.3
C[C@H]1CN([C@@H](C)CO)S(=O)(=O)c2ccc(C#CCC3CCCC3)cc2O[C@@H]1CN(C)C(=O)CN(C)C
  i, 2, -5, 2.9
C[C@@H]1CN([C@H](C)CO)C(=O)c2cc(NS(C)(=O)=O)ccc2O[C@@H]1CN(C)Cc1ccccc1
  i, 0, -9, -4.3
CN(C)C(=O)C[C@@H]1C[C@H]2c3cc(NC(=O)C4CCOCC4)ccc3O[C@H]2[C@@H](CO)O1
  i, -2, 6, -3.3
O=C(c1cnccn1)N1C[C@H]2[C@@H](c3ccccc31)[C@@H](CO)N2Cc1ccccc1Cl
  i, 3, 9, -0.4

Assay outcomes deposited in PubChem BioAssay by Broad Institute.
